Screening results (PubChem BioAssay)
FGF22 binding: binders of human FGF22 protein, primary screen, FGF22 synaptogenesis inhibitor project, biophysical, thermal shift, single point; calls only at 9.99 µM; actives 1.5% (n = 340,000); recombinant FGF22 thermal shift, SYPRO orange fluorescence; percent of sucrose octasulfate shift, DMSO zero; Fibroblast growth factor 22 (Homo sapiens), Q9HCT0;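 active means melting point raised past a set limit in the mean and every replicate; three in four hits are not shown here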
B2AR ag: beta2AR agonists driving receptor internalization, primary screen, cell-based, FAP fluorogen, flow cytometry | response, % (test concentration not listed) | Am2.2-beta2AR cells; reference of the scale not given here | Beta-2 adrenergic receptor (Homo sapiens), P07550 | actives 0.43% (n = 340,000);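 active means response above a set limit, near 3 SD of response in nonfluorescent compounds, cut at about 42% in these data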;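 further: stock transfer was 100 nL into about 11 µL; a reference agonist was the positive control; negative values mostly stem from fluorescent compounds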
Target sequence (P07550 whole entry, looked up): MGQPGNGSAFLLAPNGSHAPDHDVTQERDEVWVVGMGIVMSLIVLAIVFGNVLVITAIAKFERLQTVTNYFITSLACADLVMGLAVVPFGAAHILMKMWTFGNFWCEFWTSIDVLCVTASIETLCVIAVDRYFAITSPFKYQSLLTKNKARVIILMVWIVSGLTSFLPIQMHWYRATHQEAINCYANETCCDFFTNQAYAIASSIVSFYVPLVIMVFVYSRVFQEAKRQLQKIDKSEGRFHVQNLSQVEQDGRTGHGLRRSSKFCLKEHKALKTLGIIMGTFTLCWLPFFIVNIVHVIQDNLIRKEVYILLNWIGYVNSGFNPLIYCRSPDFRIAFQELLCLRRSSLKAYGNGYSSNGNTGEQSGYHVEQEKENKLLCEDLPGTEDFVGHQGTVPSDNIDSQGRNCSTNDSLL
UCH37 inh: inhibitors of human UCH37 deubiquitinase, primary screen, biochemical, Ub-AMC cleavage, fluorescence; Ubiquitin carboxyl-terminal hydrolase isozyme L5 (Homo sapiens), Q9Y5K5; purified proteasome/UCH37; inhibition, % (concentration not given with the values); actives 0.33% (n = 330,000);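 active means mean of two replicates above 20%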;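 further: 0% = compound-free wells with enzyme and 100% = wells lacking proteasome; stock transfer was 100 nL into about 20 µL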
Target sequence (Q9Y5K5 whole entry, looked up): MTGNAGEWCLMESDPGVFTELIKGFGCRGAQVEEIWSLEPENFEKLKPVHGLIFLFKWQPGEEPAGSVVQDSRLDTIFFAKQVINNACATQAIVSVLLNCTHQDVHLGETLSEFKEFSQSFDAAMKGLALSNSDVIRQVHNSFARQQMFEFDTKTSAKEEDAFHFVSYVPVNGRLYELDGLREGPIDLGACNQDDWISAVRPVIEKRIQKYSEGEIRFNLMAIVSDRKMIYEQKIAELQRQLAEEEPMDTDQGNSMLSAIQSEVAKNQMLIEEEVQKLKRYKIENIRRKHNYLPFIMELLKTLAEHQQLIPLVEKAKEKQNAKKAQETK
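system = Proteasome-associated human UCH37 deubiquitinase | amount = 0.15 nM proteasome as dispensed | medium = pH 7.4 Tris-HCl (50 mM) with ovalbumin, ATP-MgCl2, DTT | incubation = 30 min preincubation with enzyme, 25 min cleavage at room temperature | detection = AMC fluorescence 355/460 nm | read-out basis = percent inhibition | controls = no-proteasome and no-compound wells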
LANA-H2B inh: blockers of LANA interaction with H2A/H2B – biochemical, FP readout, HTS, primary screen; inhibition, % (concentration not given with the values); Protein LANA1 (Human herpesvirus 8 type P (isolate GK18)), Q9QR71; AID 2629, 2010; actives 0.6% (n = 320,000); cell-free LANA-H2A/H2B peptide, fluorescence polarization; in the data active means inhibition mostly above about 10%, no sharp cut-off; inactive means mostly below about 6.7%;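 further: stock transfer was 7.5 nL into about 10 µL; 0% = median of vehicle wells and 100% = median of positive control wells; one replicate is shown; the record names a cut of 25% in any replicate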
E coli growth: E. coli growth inhibition, primary screen, OD600. OD600 absorbance (no concentration beside the values). actives 0.21% (n = 330,000). Escherichia coli growth, 23 h; hits give low values. AID 1053175, 2014;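 active means OD600 absorbance below the run mean of sample wells minus 3.6 SD, in any replicate, cut at about 0.56 in these data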;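 further: stock transfer was 300 nL into about 60 µL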
HNF4A DNA FP: change in binding of human HNF4A to DNA, primary screen, biochemical, fluorescence polarization, FITC-DNA; AID 1224865, 2016; 1 h; Hepatocyte nuclear factor 4-alpha (Homo sapiens), P41235; activity change, % at 10 µM; actives 0.3% (n = 360,000); in the data active means activity change above about 30%, passing the limit was not always enough;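 further: controls were the assay level and a saturating level of protein; the project sought stronger binding though the title names inhibitors; some compounds called inactive have numbers as strong as hits; positive values seem to mean higher polarization but the record does not say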
ALR inh: inhibitors of human ALR sulfhydryl oxidase, primary screen, biochemical, H2O2 detection, HRP-luminol luminescence, single point | FAD-linked sulfhydryl oxidase ALR (Homo sapiens), P55789 | purified ALR, DTT oxidation | inhibition, % (test concentration not listed) | actives 3.8% (n = 290,000);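 active means mean and each replicate at 75% or more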;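 further: stock transfer was 7.5 nL into about 7.5 µL; 0% = neutral wells and 100% = wells with inactivated enzyme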
Target sequence (P55789 whole entry, looked up): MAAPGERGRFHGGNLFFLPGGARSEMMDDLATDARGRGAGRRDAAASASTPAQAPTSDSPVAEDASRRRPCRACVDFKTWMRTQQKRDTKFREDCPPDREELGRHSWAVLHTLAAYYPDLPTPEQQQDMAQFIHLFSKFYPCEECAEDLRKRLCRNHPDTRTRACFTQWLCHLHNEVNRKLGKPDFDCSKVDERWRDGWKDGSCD
* hit, by the source's call; i = inactive; nt = no result given; & = joins results of further samples.

SMILES	FGF22 binding	B2AR ag	UCH37 inh	LANA-H2B inh	E coli growth	HNF4A DNA FP	ALR inh
CCN(CCn1cccn1)Cc1cn[nH]c1-c1ccc(OC)cc1F	i	-5	0.2	-1.2	0.68	-0.7	-4
COc1ccc(Nc2ccc3ccccc3c2)cc1	i	4	-63	nt	0.67	0.2	nt
CCCCOc1ccc(-c2nnc(-c3ccncc3)o2)cc1	nt	-14	-10	4.4	0.67	-1.1	-12
COc1ccc([C@H]2CC(=O)C=C(c3cccc(Br)c3)C2)cc1OC	i	-1	0.8	5.3	nt	0.9	-1
c1ccc(N2CCOCCOCCOCCOCCOCC2)cc1	i	2	0.7	2.5	0.72	0.4	96*
O=C(OCCN1C(=O)CCC1=O)c1ccc(S(=O)(=O)N2CCCCC2)cc1	nt	-4	0.6	0.0	0.73	-0.6	-4
CNC(=O)C1(C)C=CC2(CCCCC2)N1C(=O)OC (stereo unspecified)	i	-1	6.3	2.0	0.62	7.6	3
CCCCCCOc1ccc(/C(C)=N/NC2=NCCN2)cc1	i	38	nt	-6.8	nt	6.5	nt
Cc1ccccc1NC(=S)NC(=O)Cc1ccc(Cl)cc1	i	-3	4.1	4.4	0.66	-0.8	-3
Cc1cccc(Nc2nc(C)cc(C)c2C#N)c1	i	-4	-14	0.0	0.69	-2.5	2
O=C(NC1CCCC1)C(=O)c1c[nH]c2ccccc12	i	3	0.8	-3.1	0.68	0.8	2
O=S(=O)(c1ccccc1)[C@@]1(c2ccc(Br)cc2)C[C@@H]2ON=C(c3cccc(Br)c3)[C@@H]2C1	i	-1	2.4	3.3	nt	0.5	-4
CC1CCCCN1S(=O)(=O)c1ccc(C(=O)Nc2nnc(C3=COCCO3)o2)cc1 (stereo unspecified)	i	2	4.4	1.0	0.72	-4.3	97*
COc1ccccc1N1CCN(Cc2cccc(OC)c2OC)CC1	nt	3	2.4	-7.1	0.71	-2.9	20
Cc1ccc(NC(=O)c2ccccc2OCc2c(C)noc2C)cc1S(=O)(=O)N(C)C	i	4	0.9	-2.7	0.71	1.7	nt
CCN(CC)c1ccc(N2C(=O)C3CCCCC3C2=O)cc1[N+](=O)[O-] (stereo unspecified)	nt	4	3.9	-0.9	0.71	1.2	-8
CCOc1ccc(C(=S)N2CCCC2)cc1OCC	i	-2	0.4	-2.4	0.7	-2.9	25
CCOC(=O)/C=C/C(=O)Nc1nccs1	i	13	2.0	-0.7	0.67	-5.3	17
CCCCOC(=O)C1=C(C)Nc2ncnn2C1c1cccc(OC)c1OC (stereo unspecified)	nt	-5	1.6	1.9	0.67	-3.1	0
Cc1cccc(-c2nc(CS(=O)CC(=O)N3CCN(C)CC3)c(C)o2)c1 (stereo unspecified)	i	11	0.0	-1.9	0.69	3.5	99*
O=[N+]([O-])c1cc(S(=O)(=O)C(F)(F)F)ccc1Sc1nc2ccccc2s1	nt	45*	2.7	-1.5	0.69	2.5	98*
Cc1cccc(NC(=O)NC(C)C(c2cccs2)N2CCOCC2)c1 (stereo unspecified)	i	-2	0.8	-6.6	0.73	2.0	-6
Cn1ccnc1SCC(=O)n1c2c(c3ccccc31)CCCC2	nt	-4	4.3	2.0	0.67	-4.2	4
Cc1cccc(N2CCN(Cc3c(C)n(C)n(-c4ccccc4)c3=O)CC2)c1C	nt	1	1.0	-3.1	0.68	6.8	-3
NS(=O)(=O)c1ccc(NC(=S)NCc2ccccc2)cc1	nt	2	0.3	-2.1	0.63	1.8	-6
Going on with the list:
SMILES	FGF22 binding	B2AR ag	UCH37 inh	LANA-H2B inh	E coli growth	HNF4A DNA FP	ALR inh
Cc1ccc(C(=O)Cc2ccccc2)c(O)c1	i	-5	0.8	nt	0.7	-4.7	nt
O=C(CCc1nnc(-c2ccccc2)o1)NCc1cc(F)ccc1F	i	-5	-0.3	-0.2	0.69	4.0	-1
Cn1c(-c2ccccc2)cnc1NCc1ccc(-c2ccccc2)cc1	i	16	1.8	3.3	0.6	-2.2	12
CCCOC(=O)c1ccc(O)c(OC)c1	i	7	2.8	-9.3	0.67	0.7	-1
CCc1c(C)nc2cc(-c3cccc(Br)c3)[nH]n2c1=O	i	1	-2.5	6.4	0.67	6.1	-7
c1ccc(CSc2nc3ncncc3[nH]2)cc1	i	-2	0.7	1.2	0.68	0.8	nt
COc1cc(C(=O)NCCCNC(=O)c2cc(OC)c(OC)c(OC)c2)cc(OC)c1OC	i	3	3.1	1.6	0.65	-1.1	-6
COc1ccc(CCNc2ncnc3c2[nH]c2cc(OC)c(OC)cc23)cc1OC	i	20	nt	6.7	nt	-0.8	2
O=C(Cc1ccc(-n2c(=O)c3sccc3n(CC(=O)Nc3ccccc3)c2=O)cc1)NCc1ccco1	i	-15	4.0	2.7	0.7	-0.5	-3
CCC1SC2=NCCN2C1(O)c1ccc(Cl)cc1 (stereo unspecified)	nt	3	1.3	-0.9	0.65	2.5	38
Cc1ccc(S(=O)(=O)N2CCOCC2)cc1NC(=O)COC(=O)c1ccc(Br)cc1	i	-7	3.5	1.8	0.68	2.2	-5
CC(C)CCN1CCN(Cc2cc(F)ccc2-n2cccn2)CC1CCO (stereo unspecified)	i	16	3.0	-2.6	0.69	3.1	0
COc1ccc(C2CC(=O)c3cnc(NC(=O)c4cc(OC)cc(OC)c4)nc3C2)cc1 (stereo unspecified)	i	-2	2.5	-4.6	0.61	-3.1	-4
Cc1cc(-c2ccc(S(=O)(=O)N3CCN(c4ccccc4F)CC3)s2)on1	i	-4	-2.5	0.6	0.68	0.5	-4
CC(=O)C1=C(O)C(=O)N(c2ccc(F)cc2)C1c1ccc(C)cc1 (stereo unspecified)	i	0	3.6	2.4	0.73	0.8	0
O=C(O)Cn1cc(CN2CCOCC2)c2ccccc21	i	-3	4.6	1.1	0.66	0.7	-7
Cc1ccc(NC(=O)/C(=C/c2cccs2)NC(=O)c2ccco2)cc1	nt	-5	7.2	-1.8	0.67	-3.9	2
CC(CCc1ccccc1)NC(=O)CCC(=O)N1CCC(C(=O)O)CC1 (stereo unspecified)	i	9	1.4	7.0	0.67	0.3	-17
Cc1nc2ccc3[nH]snc3c2n1	nt	5	-4.0	4.2	0.65	2.2	-28
O=C1N=C(N2CCOCC2)S/C1=C/c1cccs1	nt	-6	17	-0.7	0.62	-1.9	-9
CC(=O)c1ccc(OCC(O)CN2CCN(Cc3ccc4c(c3)OCO4)CC2)cc1 (stereo unspecified)	i	-8&-5	1.4&4.1	1.1	0.73&0.74	1.3&0.9	52
CCOc1ccc2nc(SCc3cccc(C)c3)nc(C)c2c1	nt	2	-21	0.4	0.7	2.6	-9
COc1ccc(-n2nnnc2CNC(=O)c2ccc3c(c2)OCO3)cc1	i	-3	-1.6	3.0	0.69	5.1	-1
CC(=O)[C@@]1(O)C(C)CC2C3C=C(C)C4=Cc5c(cnn5-c5ccccc5)C[C@]4(C)C3C(O)C[C@@]21C (stereo partly specified)	i	-450	-37	1.6	0.69	-5.2	-26
CCN1C(=O)N[C@@H](c2ccc(Br)cc2)C(C(C)=O)=C1C	i	-6	2.6	-3.7	nt	-4.9	11
Next part:
SMILES	FGF22 binding	B2AR ag	UCH37 inh	LANA-H2B inh	E coli growth	HNF4A DNA FP	ALR inh
Cc1c(C(=O)NCC2CCCO2)sc2nc(-c3ccccc3)cn12 (stereo unspecified)	i	-6	2.4	1.9	0.79	1.5	-18
O=C(Nc1ccccc1C(=O)N1CCCC1)c1cccc(S(=O)(=O)N2CCCCC2)c1	nt	-3	1.8	-6.9	0.71	-0.6	-33
CN(C)CCNc1oc(-c2ccccc2F)nc1C#N	i	3	-146	1.0	0.75	1.8	61
CCCCn1c(N)c(NCCC)c(=O)[nH]c1=O	nt	2	-7.7	7.9	0.68	-7.0	-4
Cc1ccc(C)c(OCc2nc3ccc(S(=O)(=O)Nc4c(C)n(C)n(-c5ccccc5)c4=O)cc3[nH]2)c1	i	2	1.1	8.5	0.6	-0.7	-14
CCOc1cc(C2NC(=O)N(C)C(C)=C2[N+](=O)[O-])ccc1OC(C)=O (stereo unspecified)	i	0	4.2	-1.1	0.69	0.7	4
CC(C)(C)c1[nH]ncc1[N+](=O)[O-]	i	8	nt	-0.4	nt	4.0	-2
Cc1ccccc1CN1CCCNC1=O	nt	0	3.0	0.3	0.63	2.5	-14
COc1ccc(CN2CCN(S(=O)(=O)c3ccc(C)cc3)CC2)cc1OC	i	5	1.6	-1.7	0.69	-5.7	-11
Cn1c(=O)c(C(=O)CN2CCN(Cc3ccc4c(c3)OCO4)CC2)c(N)n(Cc2ccccc2)c1=O	i	0	4.7	3.5	0.66	-1.6	-17
Cn1c(CCN2CCN(c3ccccn3)CC2)nc2cc(NS(=O)(=O)c3ccccc3)ccc21	i	-6	2.2	3.1	0.65	2.5	-4
COc1cc(/C=N/NC(=O)c2ccc(NS(=O)(=O)c3cccs3)cc2)cc(OC)c1O	i	-2	nt	1.0	nt	-6.1	98*
CCN(CC)S(=O)(=O)c1cccc(NC(=O)CCNC(=O)c2ccc([N+](=O)[O-])cc2)c1	i	3	1.1	2.7	0.7	1.9	-13
COc1cc(C2c3[nH]c4ccccc4c3C[C@@H]3C(=O)N(Cc4ccco4)CC(=O)N23)cc(OC)c1OC (stereo partly specified)	i	8	2.4	-1.7	0.64	1.2	-3
COc1cc(C2/C(=C(\O)c3ccc4c(c3)OCCO4)C(=O)C(=O)N2Cc2ccccc2)ccc1O (stereo unspecified)	i	-1	8.6	2.7	0.71	-5.2	-21
O=C(CCCCl)NC(=S)Nc1cc(C(F)(F)F)ccc1N1CCOCC1	i	-7	-3.1	-0.9	0.64	2.3	-8
CCC1(C)N(O)C(C)(C)C(c2ccc(F)cc2)=[N+]1[O-] (stereo unspecified)	nt	-1	3.7	-0.6	0.76	2.7	5
CCn1cc(C(=O)N[C@H](C(=O)NCCO)C(C)C)c(=O)c2cc3c(cc21)OCO3	i	-2	-22	1.6	0.58	3.5	nt
CC1=C(CC[C@@H](C)CO)OC2CC3C4CCC5CC(O)CCC5(C)C4CC(=O)C3(C)C12 (stereo partly specified)	i	21	1.4	-3.5	0.7	3.1	-18

A portion of the library, so the mix of outcomes need not match the whole.
